Screening results from PubChem BioAssay.
PABP polyA inh – PABP-poly(A) binding inhibition; P11940; PABP-poly(A) RNA binding, fluorescence polarization; inhibition, % at 35 µM; actives 1% (n = 290,000); AID 2014;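 active = 50% or more with normal probe brightness, or confirmed in later tests; inconclusive = above 50% with abnormal brightness, or retests that disagree; inactive = below 50% or failed in later tests; about a fifth of its hits are not listed in these tables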;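 note: calls also rest on retests at 20 µM and on dose response follow-up; controls were probe without protein and protein plus probe with vehicle; some compounds called inactive have numbers as strong as hits; many hits fall short of the cut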
Target sequence (P11940 whole entry, looked up): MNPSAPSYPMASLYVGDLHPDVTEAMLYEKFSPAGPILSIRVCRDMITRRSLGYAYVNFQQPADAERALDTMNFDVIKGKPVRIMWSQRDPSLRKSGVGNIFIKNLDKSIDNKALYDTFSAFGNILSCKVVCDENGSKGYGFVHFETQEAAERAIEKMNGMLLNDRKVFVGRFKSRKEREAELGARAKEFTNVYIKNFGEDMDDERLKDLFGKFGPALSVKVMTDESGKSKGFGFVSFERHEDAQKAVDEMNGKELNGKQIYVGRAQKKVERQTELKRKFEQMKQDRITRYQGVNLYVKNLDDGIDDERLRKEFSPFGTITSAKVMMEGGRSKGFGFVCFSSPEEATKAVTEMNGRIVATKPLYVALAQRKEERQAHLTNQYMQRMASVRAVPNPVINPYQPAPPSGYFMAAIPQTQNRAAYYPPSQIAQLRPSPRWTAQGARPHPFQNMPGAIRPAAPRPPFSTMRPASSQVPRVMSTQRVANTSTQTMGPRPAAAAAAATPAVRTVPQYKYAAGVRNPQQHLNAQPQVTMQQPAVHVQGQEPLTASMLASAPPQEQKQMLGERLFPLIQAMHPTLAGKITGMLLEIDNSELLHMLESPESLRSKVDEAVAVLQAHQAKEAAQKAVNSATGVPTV
eIF4H FP inh – inhibitors of RNA binding by human eIF4H | Q15056 | eIF4H fluorescence polarization binding assay | inhibition, % at 35 µM | actives 0.94% (n = 290,000) | AID 2012;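 active = 50% or more with normal probe brightness, or confirmed in later tests; inconclusive = above 50% with abnormal brightness, or retests that disagree; inactive = below 50% or failed in later tests; about a fifth of its hits are not listed in these tables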;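 note: calls also rest on retests at 20 µM and on dose response follow-up; 0% = protein and probe with vehicle and 100% = probe without protein; strong numbers were not always called active; many hits fall short of the cut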
CSC inhib – cancer stem cell inhibition. cancer stem cell-like cells viability, luminescence. inhibition, % at 7.5 µM. actives 1.1% (n = 300,000);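 active = mean at 75% or more and at least half the replicates too; inconclusive = mean and replicates disagree; tested in HMLE shEcad cells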;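 note: 0% = median of negative and 100% = median of positive control wells; the first replicate is given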
HIV Env fusion – HIV envelope-mediated fusion inhibition; HeLa-JRFL Env/CEM21 cell fusion, luciferase; inhibition, % at 12.3 µM; actives 1.1% (n = 360,000);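 active = mean replicate inhibition score of at least 50 and every replicate individually at or above 50; inconclusive = only one of the two criteria met; inactive = mean below 50 and not all replicates reaching 50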;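 note: 0% = plate neutral controls and 100% = maraviroc near 300 nM; one replicate is shown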
UUG fidelity – yeast start codon fidelity modulation. AID 602363. activity score, % at 18.7 µM. S. cerevisiae UUG-firefly luciferase reporter, luminescence/redox ratio. actives 0.13% (n = 350,000);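 active = replicate mean at a twofold rise or more, about +100% in these data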;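 note: firefly luciferase made from a UUG start codon reports start codon fidelity; reporter light over untreated wells divided by growth signal over untreated wells; some hits fall short of that in this replicate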
Rce1 inh – inhibitors of yeast Ras-converting enzyme; Q03530; yeast membranes, quenched prenylated peptide cleavage fluorescence; calls only; actives 0.27% (n = 290,000);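 active = fall in fluorescence gain of 50% or more versus controls, with final raw signal at or below 3038400; inconclusive = same 50% fall but final raw signal above 3038400; inactive = fall in fluorescence gain under 50%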;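 note: plate controls were neutral control wells for no effect and wells lacking membranes for full effect; tested at 10 µM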
MT1-MMP act inh – MT1-MMP (human) activation inhibition; P50281; HT1080 RFP-PRO-GFP cells, GFP/RFP ratio fluorescence, overnight; percent of plate control window, DMSO zero; GFP/RFP ratio change, % at 20 µM; actives 0.061% (n = 360,000);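 active = GFP/RFP ratio change of at least 30% with cell ATP level not reduced by more than half and red fluorescence within 50% of control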; note: strong numbers were not always called active
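Material – HT1080 RFP-PRO-GFP cells · Control set – DMSO wells and RFP-L50D-GFP cells · Incubation – overnight cell settling, then overnight compound exposure, 37 °C, 5% CO2 · Compound dosing – single-point 20 µM compound, 1% DMSO · Read-out – GFP/RFP fluorescence ratio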
MT1-MMP act inh RFP – also measured in MT1-MMP act inh; calls as there; RFP signal change, %; measured here: RFP expression control read;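 0 = vehicle wells; hits needed this value within 50% of zero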
An asterisk follows results filed as active; i = inactive; ? = inconclusive; . = not tested or not shown; & = joins results of further samples; [ ] = another dose, or the depositor's remark.

SMILES | PABP polyA inh | eIF4H FP inh | CSC inhib | HIV Env fusion | UUG fidelity | Rce1 inh | MT1-MMP act inh | MT1-MMP act inh RFP
CCn1nc(NS(=O)(=O)c2ccc(NC(C)=O)cc2)c2cc3cccc(C)c3nc21 | 17 | -10 | 7 | 5 | -13 | i | 3 | 6
Cc1ccc(CSc2nc3c(c(SCC(=O)O)n2)CCCC3)cc1 | -4 | -6 | 2 | -16 | -15 | i | 5 | 3
N#Cc1nc(N2CCCC2)nc(N2CCCC2)n1 | -4 | -6 | -7 | ? | -8 | i | 12 | -12
Cc1cc(C)n(-c2ccc3cccc(NS(C)(=O)=O)c3n2)n1 | 3 | 19 | 87* | 60* | -12 | i | -9 | -9
C=CCn1c(Br)nc2c1c(=O)[nH]c(=O)n2C | -4 | 5 | 8 | -157 | -15 | i | 0 | 0
CSc1nnc(NC(=O)C23CC4CC(CC(C4)C2)C3)s1 | 0 | -15 | 12 | -26 | 2 | i | -4 | -7
Cc1nn(Cc2ccccc2)c(Cl)c1C(=O)OC1CCOC1=O (configuration not stated) | -7 | -7 | -13 | . | -6 | i | 0 | 0
CCCCCC(=O)Nc1cc(S(=O)(=O)N2CCOCC2)ccc1Oc1ccc(OCC)cc1 | . | . | -8 | -16 | -13 | i | -6 | -13
COc1ccccc1NC(=O)NNC(=O)c1ccc(-c2ccccc2)cc1 | -8 | -11 | -7 | 8 | -8 | i | 0 | 4
CC(NC(=O)c1cc(COc2c(F)cccc2F)on1)c1cnn(-c2ccccc2)c1 (configuration not stated) | -12 | -9 | 11 | -24 | 9 | i | -8 | -5
O=C(CSc1nnnn1-c1cccc(C(=O)O)c1)NC(c1ccccc1)c1ccccc1 | -6 | -3 | -2 | -18 | . | i | 3 | 7
Nc1c(C(=O)c2ccc(F)cc2)oc2ccccc12 | -10 | 1 | -11 | -22 | -16 | i | -2 | -1
CCOC(=O)c1cc(-c2ccccc2)sc1NC(=O)C(C)(C)C | -10 | 2 | 8 | . | . | i | -13 | -2
Cc1nnc(SCC(=O)N(C)CC(=O)Nc2ccc(F)cc2)n1Cc1ccccc1 | 9 | 0 | -23 | -2 | . | i | 1 | -2
C=CCSC1=C(C#N)C(c2ccccc2OCC)C(C#N)C(=O)N1 (configuration not stated) | 0 | 1 | . | -36 | -13 | i | -3 | 3
CCN(CC)c1ccc(S(=O)(=O)N2CCOCC2)cc1NC(=O)CSc1nnc(N)s1 | . | . | 2 | -14 | 2 | i | 5 | 8
CCCc1nc(N)sc1C(=O)OCC | 13 | 4 | -3 | . | -3 | i | -1 | 11
CC1CCCCN1Cc1c(O)ccc2c(=O)c(-c3ccc(Cl)cc3Cl)coc12 (configuration not stated) | -2 | -12 | 3 | 42 | -7 | i | -1 | -3
Cc1ccc(NC(=O)Cn2c(O)c(N=NC(N)=O)c3ccccc32)cc1 | -5 | 2 | . | -23 | -16 | i | 0 | -4
C[C@H](O)Cc1cn(-c2cc3cc(C#Cc4ccsc4)ccc3oc2=O)nn1 | . | . | -7 | -10 | -10 | . | 7 | 2
CSc1ncc(C(=O)Nc2cc(C)ccc2C)c(C)n1 | -4 | 2 | -1 | -17 | -1 | i | -1 | 3
CCN1C(Nc2ccccc2)=NC[C@@H]1CC(C)C | 6 | 13 | -4 | -74 | -1 | i | 4 | 3
CC(C)CC(=O)Nc1ccc(C(=O)COC(=O)C2CCC2)cc1 | -4 | -15 | 7 | -1 | -6 | i | -1 | 2
CC(C(=O)NN)n1nnc(N2CCOCC2)n1 (configuration not stated) | -11 | -4 | 0 | 3 | . | i | 4 | 2
Cc1cc(C)c(C(=O)COC(=O)CNC(=O)c2ccccc2C)c(C)c1 | . | . | -16 | . | . | i | 3 | 5
CSc1cccc(NC(=O)C2CCCN2S(=O)(=O)c2ccc3c(c2)CCC(=O)N3)c1 (configuration not stated) | 11 | -6 | -5 | 37 | 9 | . | -1 | -1
OCC1CCCCN1C(=S)Nc1cccc(Cl)c1 (configuration not stated) | 19 | -4 | -4 | 4 | 7 | i | 1 | -2
COc1ccc(C)cc1S(=O)(=O)N1CCCCC1 | -8 | -2 | -3 | . | -11 | i | 2 | 5
CCc1ccc(NC(=O)CSc2nnc(CC)c(CC)n2)cc1 | 0 | 2 | -14 | 40 | -9 | i | 3 | 6
O=C(COc1cccc(F)c1)Nc1ccc2[nH]c(=O)[nH]c2c1 | 6 | -3 | -19 | -39 | . | i | -3 | -6
Fc1ccc(NC(=S)Nc2ccc(F)c(Cl)c2)cc1Cl | 4 | -3 | 2 | . | -27 | i | -7 | -3
Cc1ccc(NC(NC(=O)c2ccccc2[N+](=O)[O-])C(Cl)(Cl)Cl)cc1 (configuration not stated) | 6 | -1 | 1 | 3 | -7 | i | 3 | -1
COc1ccc(S(=O)(=O)N(C)CC(=O)Nc2ccc3c(c2)OCCO3)cc1 | . | . | -5 | 7 | . | i | 1 | 2
CSc1ccc(/C=C/C(=O)OCC(=O)c2ccc[nH]2)cc1 | . | . | . | -10 | -9 | . | 3 | 1
CCOc1ccc(N=c2cc(-c3ccc(OC)cc3)oc3ccccc23)cc1 | 12 | -1 | 3 | . | -16 | i | 4 | -5
COc1ccc(-c2cc3c(=O)n(CC(=O)NCc4ccc(C)cc4)ncn3n2)cc1 | -10 | -3 | 13 | -6 | -29 | i | 0 | 6
O=C(NCc1cccs1)C(=O)c1c[nH]c2ccccc12 | 0 | 6 | 6 | -1 | -1 | i | -5 | -1
Cc1cc2c(cc1C)/C(=N/NC(=O)c1ccccn1)CCC2 | 1 | 0 | -2 | 10 | -37 | i | 5 | 3
O=C(NCC(=O)N1CCCCCC1)c1ccc(OC(F)F)cc1 | 1 | -1 | -7 | -6 | -1 | i | 1 | 1
COC(=O)C1=C(C)NC(C)=C(C(=O)OC)C1c1ccco1 | -4 | -13 | -15 | 4 | . | i | 1 | 0
Cc1cc(NCC(C)C)n2ncnc2n1 | 5 | 1 | -18 | 9 | -10 | i | 6 | 8
COC(=O)C1(C#N)C(c2ccccc2)C1(C(=O)OC)C(=O)OC (configuration not stated) | 9 | -5 | -2 | . | -16 | i | 0 | 4
CCOCCNC(=O)c1ccc2c3c(cccc13)CC2 | -8 | 4 | -17 | . | -7 | i | 0 | 0
c1ccc2c(c1)oc1c(Nc3ccc4c(c3)OCCO4)ncnc12 | -7 | -7 | 25 | . | -23 | i | -13 | -10
C[C@H](CO)N1C[C@H](C)[C@@H](CN(C)S(=O)(=O)c2ccccc2F)OCc2cnnn2CCCC1=O | . | . | . | 1[16.7 µM] | -10&-9 | . | 0 | 4
O=S(=O)(Nc1cccnc1Cl)c1ccc2c(c1)OCCO2 | -2 | -7 | -13 | . | -7 | i | 14 | 3
O=C(COC(=O)c1ccccc1O)NC(c1ccccc1)c1ccccc1 | . | . | -15 | -4 | -7 | . | 4 | 5
Cc1nn(CC(=O)Nc2ccc(Cl)cc2Cl)c(=O)c2ccccc12 | -5 | 0 | 5 | -1 | -7 | i | -16 | -5
CCc1noc(C)c1C(=O)Nc1nc(-c2ccc(F)cc2)c(C)s1 | -10 | 9 | 0 | -2 | 0 | . | -7 | -11
CCOc1ncccc1C(=O)OCC(=O)c1ccc(OC)c(OC)c1 | 2 | -13 | 7 | 16 | . | i | -3 | 0
COc1cccc(-n2c(SCC(=O)NC3CCS(=O)(=O)C3)nc3ccccc3c2=O)c1 (configuration not stated) | . | . | . | 6 | -23 | . | 4 | 0
COc1ccc(/C=N/n2c(C)nc3sc(C)c(C)c3c2=O)cc1 | -4 | 6 | 40 | -1 | -5 | i | 4 | 5
Cc1nn(-c2ccccc2)c(C)c1/C=C/C(=O)OCC(=O)Nc1ccc(S(N)(=O)=O)cc1 | . | . | -2 | -8 | . | . | -3 | 2
CC(C)(C)N1C(=O)[C@H]2[C@@H](c3ccc(Br)cc3)N3C(=O)N(c4cccc(Cl)c4)C(=O)[C@@]3(Cc3ccccc3)[C@H]2C1=O | . | . | -15 | 0 | -12 | i | -3 | -10
CCN(CC)C(=O)CSc1nnc(-c2ccc(S(=O)(=O)N3CCCC3)cc2)o1 | 6 | -14 | -8 | ? | -4 | . | 3 | 1
Cc1nnc(NC(=O)CSc2nnc(-c3ccc(S(=O)(=O)N4CCCC4)cc3)n2C)s1 | 5 | -6 | . | -41 | -11 | i | 5 | 9
CN(CC(=O)NCc1cccs1)CC(=O)Nc1ccccc1Cl | . | . | . | 7 | -7 | . | -1 | 0
COc1ccc2nc(-c3ccccc3)cc(C(=O)OCC(=O)N3CC(C)OC(C)C3)c2c1 (configuration not stated) | . | . | . | 10 | -4 | . | -3 | -6
Cc1nc2cc(C(=O)OCC(=O)NC(C)C(C)C)ccc2n1-c1ccccc1 (configuration not stated) | 3 | -3 | -4 | -36 | -2 | i | 4 | 0
CN(C)c1ccc(/C=C(\C#N)c2ccccc2)cc1 | -9 | -14 | . | . | -44 | . | -2 | -11
More compounds follow:
SMILES | PABP polyA inh | eIF4H FP inh | CSC inhib | HIV Env fusion | UUG fidelity | Rce1 inh | MT1-MMP act inh | MT1-MMP act inh RFP
CC#CCCCC(=O)Nc1cccc(C(=O)O)c1 | 30 | 20 | -11 | -122 | -15 | i | -4 | -1
CC(C)Oc1cccc(-c2cc(C(=O)NN3CCOCC3)c3ccccc3n2)c1 | 0 | -6 | 7 | -12 | -6 | i | -4 | -2
COc1ccccc1CC(NC(C)=O)C(=O)N1CCN(C(=O)Nc2ccccc2Cl)CC1 (configuration not stated) | 7 | 1 | -11 | . | -2 | i | 0 | 5
COC(=O)C1(C(=O)OC)NOC2C(=O)N(c3ccccc3)C(=O)C21 (configuration not stated) | -5 | 1 | -10 | ? | 13 | i | -2 | 2
Cc1ccc(Nc2nc(N)nc(CSC(=S)N3CCOCC3)n2)cc1 | -11 | -1 | -8 | -138 | -11 | i | -3 | -7
O=C(c1cn(-c2ccccc2)nc1-c1ccc(Cl)cc1)N1CCOCC1 | -2 | 8 | -2 | -20 | . | i | -4 | -1
CC(C)(C=O)C1=CC(=O)c2ccccc2C1=O | 3 | 19 | 57 | 17 | . | . | -43 | 20
C[C@H]1CN([C@@H](C)CO)S(=O)(=O)c2ccc(C#CC3CC3)cc2O[C@@H]1CN(C)S(C)(=O)=O | . | . | . | 9 | 7&8&4 | . | -2 | 0
COc1ccc(Cn2cnc3c(NS(C)(=O)=O)c(C)c(C)cc32)cc1 | 0 | -8 | -4 | 11 | . | . | -1 | 4
CCC1Oc2nc(SC)nnc2-c2ccccc2N1C(=O)c1ccccc1 (configuration not stated) | -2 | 1 | 6 | . | 2 | i | 3 | 13
COc1ccc(CCNC(=S)NCc2ccc(Cl)c(Cl)c2)cc1OC | 5 | -12 | -11 | 22 | . | i | 2 | -3
COc1ccc(Oc2ncnc3sccc23)cc1 | -7 | -12 | -1 | -2 | -9 | i | -1 | -6

Of the compounds above, three contain a COOH group:
SMILES | PABP polyA inh | eIF4H FP inh | CSC inhib | HIV Env fusion | UUG fidelity | Rce1 inh | MT1-MMP act inh | MT1-MMP act inh RFP
Cc1ccc(CSc2nc3c(c(SCC(=O)O)n2)CCCC3)cc1 | -4 | -6 | 2 | -16 | -15 | i | 5 | 3
O=C(CSc1nnnn1-c1cccc(C(=O)O)c1)NC(c1ccccc1)c1ccccc1 | -6 | -3 | -2 | -18 | . | i | 3 | 7
CC#CCCCC(=O)Nc1cccc(C(=O)O)c1 | 30 | 20 | -11 | -122 | -15 | i | -4 | -1

An unsorted share of the library (roughly 3% active in at least one column).
